Vaccinia Venus = vaccinia inhibition (Venus reporter); Potency, µM (titrated, usually from 36.5 µM), for the others: at the highest dose activity change, negative = inhibition, usual class: inhibitors; hit rate 0.46% among 330,000; AID 720580; Vaccinia virus Venus reporter expression, fluorescence; active means well fitted inhibition curve with a large enough effect; inconclusive means small, poorly fitted or top-dose-only effect; inactive means no such curve, though single readings can be large or run the other way; tested in A549 cells; further: nearly all actives have a fitted effect of over 30% in size; inactives centre near -10
VACV mCherry inh = vaccinia inhibition (mCherry reporter); Potency, µM (series often up to 36.5 µM), inactives show top-dose activity change, negative = inhibition, usual class: inhibitors; hit rate 0.63% among 310,000; Vaccinia virus mCherry reporter infection, fluorescence; about a quarter of the inactives have no number; active = well fitted inhibition curve with a large enough effect; inconclusive = small, poorly fitted or top-dose-only effect; inactive = no such curve, though single readings can be large or run the other way; tested in A549 cells; further: nearly all actives have a fitted effect of over 35% in size; inactives centre near -10
* = called active by the depositor; i = inactive; ? = inconclusive; · = no result given; [ ] = remark or other dose. On the % scale 0 is the no-effect control and ±100 the full control effect; potency means the concentration at half of the fitted maximal effect.

SMILES	Vaccinia Venus	VACV mCherry inh
COc1ccc(C(c2c(NC(=O)c3ccccc3)sc(C)c2C)N2CCN(CCO)CC2)cc1 (stereo not drawn)	4.6%	-4.3%
OCCNCc1c(OCc2ccc(Cl)cc2)ccc2ccccc12	-18.9%	-36.6%
COc1ccc(Cc2c(-c3cccc(Br)c3)nc3c(C)cc(Br)cn23)c(C)c1	4.8%	2.8%
Cc1cc(SCC#N)n2nc(C)c(-c3ccc(Cl)cc3)c2n1	-21.4%	-28.4%
CC(=O)OC(C)(C)/C=C/C(=O)[C@](C)(O)C1[C@H](O)C[C@@]2(C)C3CC=C4C(C=C(O[C@@H]5O[C@H](CO)[C@@H](O)[C@H](O)[C@H]5O)C(=O)C4(C)C)[C@]3(C)C(=O)C[C@]12C (stereo partly drawn)	22.4µM*	-12.0%
COc1ccc(COC(=O)c2cc([N+](=O)[O-])ccc2N2CCOCC2)cc1F	?	?
CC(NS(=O)(=O)c1ccccc1)C(c1cccs1)N1CCOCC1 (stereo not drawn)	7.3%	5.7%
O=C(CSc1nnc(CCCO)n1-c1ccccc1)NCCc1ccccc1	-5.8%	0.3%
N#C/C(=C\Nc1ccccc1SC(F)(F)F)c1nc(-c2ccccc2)cs1	-8.0%	-5.5%
COc1ccccc1-n1c(O)c(/C=N/N2CCCCC2)c(=O)n(-c2ccccc2OC)c1=S	2.0%[7.34 µM]	-0.2%[7.34 µM]
CCOc1ccccc1N(CC(=O)Nc1ccccc1C(=O)O)S(C)(=O)=O	-10.6%	-11.1%
COC(=O)c1ccc(-c2nc3ccccc3[nH]2)cc1	-24.1%	-25.8%
O=C(COC(=O)c1cccnc1)Nc1cccc(Cl)c1	-4.4%	-0.6%
CCOc1ccc(C(=O)Nc2ccc(S(=O)(=O)N3CCCCC3c3cccnc3)cc2)cc1 (stereo not drawn)	?	-24.4%
Cc1ccc(C2=CSC3=NCCN23)cc1	5.7%[7.34 µM]	-12.0%[7.34 µM]
COc1ccc(-c2nc3ccc(NS(C)(=O)=O)cc3o2)cc1	8.0%	6.6%
CC(C)n1nnnc1C1c2ccccc2C(=O)N1Cc1ccc(F)cc1 (stereo not drawn)	1.1%	14.3%
O=C(Nc1ccc(F)cc1)C(c1ccncc1)N1CCN(c2cccc(C(F)(F)F)n2)CC1 (stereo not drawn)	?	-28.8%
COC(=O)c1n[nH]n(-c2cc(Cl)cc(Cl)c2)c1=O	-8.6%	i
COCCn1c(-c2ccc(-c3ccc([N+](=O)[O-])cc3Br)o2)nc2c1c(=O)[nH]c(=O)n2CC(C)C	-3.3%	-27.2%
O=C(NC(=S)NCc1ccccc1)c1ccccc1	-11.8%	i
CCN(CC)CCNC(=O)CCCNC(=O)Cn1cnc2sc(C)c(C)c2c1=O	-1.9%	-18.0%
CCOC(=O)C1CCN(C(=S)Nc2cc(C)ccc2C)CC1	-4.5%	-21.8%
CCC(C)C(NC(=O)OCc1ccccc1)C(=O)NCC(c1ccccc1)N(C)C (stereo not drawn)	-9.9%	-10.8%
O=C(CCCNS(=O)(=O)c1cccc2nsnc12)NCCN1CCN(c2ccccc2F)CC1	-17.8%	i
CCC(C)NC(=O)c1ccc(NS(=O)(=O)c2ccc3[nH]c(=O)[nH]c3c2)cc1 (stereo not drawn)	6.0%	-13.3%
COc1ccc(NC(=O)Cn2c(=O)n(Cc3nc(-c4ccccc4)no3)c(=O)c3cc4c(cc32)OCO4)cc1Cl	-2.6%	0.7%
CC1CC(C)CN(C(=O)COC(=O)c2cc3ccccc3oc2=O)C1 (stereo not drawn)	-14.5%	i
CCCCN(CC)CCCNC(=O)c1sc2nc(C)cc(C)c2c1-n1cccc1	-4.9%	-17.7%
Cc1ccc(-n2ncc3c(N4CCN(Cc5ccccc5)CC4)ncnc32)cc1C	-6.4%	-5.3%
NC(CO)(CO)COCc1ccccc1	-6.6%	i
CCOC(=O)C1=C(C)N=c2s/c(=C\c3ccc(OCC(=O)O)cc3)c(=O)n2C1c1ccc(Cl)cc1 (stereo not drawn)	0.1%	i
CCCC1(CCC)NC(=O)N(CC(=O)Nc2ccc3c(c2)OCCO3)C1=O	-6.1%	i
CCN(CC)S(=O)(=O)c1cc([N+](=O)[O-])ccc1N1CCC(C(N)=O)CC1	-26.2%	-27.2%
COc1ccc(Cl)cc1-c1cc(C(=O)Nc2ccccc2)[nH]n1	-8.4%	i
COc1ccc(CNC(=S)N/N=C(/C)c2ccccc2)cc1	-17.1%	-8.9%
CCC(C)NC(=O)CS(=O)(=O)Cc1nc(-c2cccc(OC)c2)oc1C (stereo not drawn)	-8.7%	i
Cc1c(C(=O)c2ccc(F)cc2F)c2ccccn2c1CCc1ccccn1	-13.6%	-13.8%
COc1ccc(NC(=O)COC(=O)CCc2ccc(S(=O)(=O)N3CCOCC3)cc2)cc1Cl	-15.6%	-13.9%
O=C(O)C1Cc2ccccc2CN1C(=O)COc1ccc(Br)cc1 (stereo not drawn)	6.8%	i
Cn1c(=O)n(Cc2ccccc2)c(=O)c2c1nc1n2CCCN1C1CCCCC1	-16.3%	i
Clc1ccc(Nc2ncnc3c2cnn3-c2ccccc2)cc1	?	-3.5%
Cc1cccc(C(=O)NC(=S)N2CCN(C(=S)NC(=O)c3cccc(C)c3)CC2)c1	-24.4%	-28.7%
CCN(CC)S(=O)(=O)c1ccc(NCCCn2ccnc2)c([N+](=O)[O-])c1	-22.0%	-16.1%
C1=C(c2cccc3ccccc23)N2CCN=C2S1	-30.8%	·
O=C(NC1CCCCCC1)c1cc(-c2ccccn2)nc2ccccc12	-10.9%	i
S=c1sscc1-c1ccccc1	-4.1%	-1.8%
O=C(N/N=C/c1c(O)ccc2ccccc12)c1cccnc1	-29.3%	?
COc1ccccc1N1CCN(C(=O)c2ccoc2C)CC1	-6.4%	·
Cc1cc2nc(-c3ccc[nH]c3=O)n(Cc3cccc(F)c3)c2cc1C	-9.7%	i
CCN(CC)CCn1c(=S)[nH]c2ccccc2c1=O	1.7%	-13.9%
CSc1ccc(Cn2c(C)c(C(=O)NCc3cccc(C(F)(F)F)c3)sc2=O)cc1	-5.0%	4.2%
Clc1ccc2nc(-c3ccccc3)c(Cc3ccsc3)n2c1	-6.5%	i
O=C1CC(=C(c2ccccc2)c2ccccc2)C(=O)N1CCCCN1CCN(c2cccc(Cl)c2)CC1	?	-19.5%[1.46 µM]
C/C(=N\NC(=O)C1CC1)c1ccc(Cl)cc1	-7.9%	i
CCc1ccc(S(=O)(=O)c2cn(Cc3ccccc3)c3cc(N4CCCC4)c(F)cc3c2=O)cc1	-11.3%	2.0%
COC(=O)C1=C(C)NC(=S)NC1c1ccc(OCC(=O)N2CCCCC2)c(OC)c1 (stereo not drawn)	-5.1%	-9.2%
CC(C)n1c(=O)c(C=Nc2ccc(S(N)(=O)=O)cc2)c(O)n(Cc2ccco2)c1=O	-1.8%	i
CCNC(=O)C1(C)CCCN1C(=O)c1cnc2ccccc2n1 (stereo not drawn)	3.0%	7.5%
CC(=O)Nc1ccn(-c2ccccc2)n1	-3.5%	-11.3%

Compound profiles, as listed above. Values in the order: Vaccinia Venus | VACV mCherry inh
Record of CCOC(=O)C1=C(C)N=c2s/c(=C\c3ccc(OCC(=O)O)cc3)c(=O)n2C1c1ccc(Cl)cc1 (stereo not drawn) = 0.1% | i
Record of CCC(C)NC(=O)CS(=O)(=O)Cc1nc(-c2cccc(OC)c2)oc1C (stereo not drawn) = -8.7% | i

Next part.
SMILES	Vaccinia Venus	VACV mCherry inh
Cc1cc(C)n(CCc2nc(-c3ccc(-c4ccccc4)cc3)cs2)n1	-12.7%	-0.5%
COc1ccc(NC(=O)Nc2nnc(-c3ccncc3)s2)cc1	-17.8%	-4.8%
CCOc1ccc(NC(=S)N(Cc2ccc(N(C)C)cc2)Cc2ccco2)cc1	-14.6%	-22.7%
O=C(NNC1CC(=O)N(c2ccc(Br)cc2)C1=O)c1cccs1 (stereo not drawn)	-1.0%[7.34 µM]	-6.9%[7.34 µM]
O=C(O)c1cccc(Nc2ccc([N+](=O)[O-])c3nonc23)c1	2.5%	-10.2%
CN(C)S(=O)(=O)c1ccc(C(=O)NCc2ccc3[nH]c4c(c3c2)CCCC4)cc1	-13.4%	30.9%[activator]
CCN(CC)c1nc(N)c([N+](=O)[O-])c(NCCO)n1	-15.6%	-5.0%
Cc1csc2nc(O)c(C(=O)NC3CCCCC3)c(=O)n12	-9.7%	-0.7%
C=CCNC(=O)c1ccc(-c2cccc([N+](=O)[O-])c2)o1	-6.4%	-27.2%
O=C1c2ccccc2C(=O)N1N(c1ccccc1)c1ccccc1	-8.6%	i
CNC(=S)N(CCc1ccc(OC)c(OC)c1)Cc1cc2c(C)cc(C)cc2[nH]c1=O	7.4%	i
CCOc1ccc(CCNC(=O)COC(=O)/C=C/c2ccccc2OC)cc1OCC	-11.8%	-18.5%
O=C(Nc1ccc(Cl)cn1)c1cc(S(=O)(=O)N2CCCCC2)ccc1Cl	-6.8%	i
Cc1c(NC(=O)CSc2nnnn2-c2ccc(F)cc2)c(=O)n(-c2ccccc2)n1C	-5.0%	-3.4%
CCOC(=O)CNC(=O)c1c(C)nn(C)c1Cl	-2.5%	i
COc1ccc(C2CC(c3cccs3)=NN2S(C)(=O)=O)cc1OC (stereo not drawn)	-1.8%	-4.8%
CCCN(CCC)CC(=O)Nc1cccc2c1OCO2	-0.6%	·
Cc1ccc(S(=O)(=O)N2CCC(C(=O)O)CC2)cc1	-8.2%	i
COC(=O)C1=C(C(C)=O)C(c2ccc(C(=O)OC)cc2)n2nnnc2N1 (stereo not drawn)	-1.3%	·
COc1ccc2c3n([n+]([O-])c2c1)CCN=C3c1ccc(C)cc1	-15.9%	-26.0%
CCN(CC)C(=O)CN(c1ccc2c(c1)OCO2)S(C)(=O)=O	-7.8%	-1.2%
Cc1c(C(=O)OCC(=O)Nc2ccc3c(c2)OCO3)cccc1[N+](=O)[O-]	-14.5%	i
CCN(CC)c1ccc(CN(C(=O)c2cc(OC)c(OC)c(OC)c2)C2CCS(=O)(=O)C2)cc1 (stereo not drawn)	-10.0%	-14.3%[1.46 µM]
Cc1ccc(C)c(S(=O)(=O)NC(C)CCc2ccccc2)c1 (stereo not drawn)	-4.5%	-13.0%

Arranged by length of the SMILES (descending): part of the list above
SMILES	Vaccinia Venus	VACV mCherry inh
Cn1c(=O)n(Cc2ccccc2)c(=O)c2c1nc1n2CCCN1C1CCCCC1	-16.3%	i
CCOc1ccc(CCNC(=O)COC(=O)/C=C/c2ccccc2OC)cc1OCC	-11.8%	-18.5%
O=C(O)c1cccc(Nc2ccc([N+](=O)[O-])c3nonc23)c1	2.5%	-10.2%
COc1ccc(C2CC(c3cccs3)=NN2S(C)(=O)=O)cc1OC (stereo not drawn)	-1.8%	-4.8%

(listing goes on)
SMILES	Vaccinia Venus	VACV mCherry inh
CCOC(=O)c1cc(C(C)C)sc1NC(=O)COC(=O)CCS(=O)(=O)c1ccccc1	-18.4%	-20.9%
COc1ccc(-c2cnc3ccccc3n2)cc1NC(=O)CNC(=O)c1ccccc1	?	-14.1%
COc1ccccc1N1CCN(C(=O)CSc2nnc3n2C(C)(C)Cc2ccccc2-3)CC1	?	-26.1%
CCOc1ccccc1CNC(=O)CCCn1c(=O)c2cccn2c2cccnc21	-15.2%	i
CCOc1ccc(NC(=S)NCCCN2CCN(c3ccc(OC)cc3)CC2)cc1	-6.5%	i
C/C(=N\Nc1ccc([N+](=O)[O-])cc1)c1ccc(C#N)cc1	0.0%	-19.6%
C[C@H]1CN([C@@H](C)CO)C(=O)CCCn2nncc2CO[C@H]1CN(C)S(=O)(=O)c1ccc(F)cc1	-7.7%	-15.0%
O=C(NNC1CC(=O)N(c2ccc(Br)cc2)C1=O)c1ccco1 (stereo not drawn)	-2.6%	-2.5%
O=C(Nc1cccc(S(=O)(=O)N2CCCC2)c1)c1ccccc1OC(F)F	-15.2%	i
COc1cc(CNCCSc2nnnn2C)ccc1OCc1ccccc1C	-16.5%	-12.6%
CC1=C(C(=O)OCc2ccccc2)C(c2ccc(N3CCOCC3)cc2)NC(=O)N1 (stereo not drawn)	-26.5%	·
Nc1c(C(=O)NCc2cccs2)nnn1CC(=O)Nc1cccc(F)c1	-2.3%	-5.4%
CCC(CO)Oc1cc(NC(=O)c2cccc(OC)c2)c2ncn(C(C)C)c2c1 (stereo not drawn)	-8.4%	?
CC(=O)c1c(C)nc(Nc2nc(C)c3cc(C)ccc3n2)nc1C	-16.4%	?
CCN(CCCNC(=O)C1CCN(C(=O)c2cc3sccc3n2C)CC1)Cc1ccccc1	0.0%[7.34 µM]	i[7.34 µM]
CC(C)c1ccc(-c2nc3c([nH]2)c(=O)n(C)c(=O)n3C)cc1	-1.3%	·
Cc1ccc2cc(CNC(C)c3cccc4ccccc34)c(N3CCC(O)CC3)nc2c1 (stereo not drawn)	10.8%	-0.2%
Cc1ccc(NC(=O)Cn2c(=O)ccc3cc(S(=O)(=O)N4CCCC4)ccc32)cc1N(C)C	-20.3%	-28.0%
Cc1nc(Sc2nnnn2C2CC2)c2c(-c3ccccc3)csc2n1	-27.8%	?
O=C(COc1ccc(NS(=O)(=O)c2ccc(F)cc2)cc1)N1CCOCC1	-1.2%	i
NS(=O)(=O)c1ccc(CCNc2nc(C(F)(F)F)nc3ccccc23)cc1	-21.8%	-3.2%
CC12CCC(C(=O)N(c3ccc(Cl)cc3)C1=O)C2(C)C (stereo not drawn)	-3.5%	-14.4%

Retrieved one by one from above, 2 records:
SMILES	Vaccinia Venus	VACV mCherry inh
O=C(Nc1ccc(Cl)cn1)c1cc(S(=O)(=O)N2CCCCC2)ccc1Cl	-6.8%	i
COc1ccc(C(c2c(NC(=O)c3ccccc3)sc(C)c2C)N2CCN(CCO)CC2)cc1 (stereo not drawn)	4.6%	-4.3%

Assay outcomes (PubChem BioAssay)

The order is random; overall some 0.88% were active at least once.
